Screening results from PubChem BioAssay.
HSD17B inh – qHTS Assay for Inhibitors of HSD17B4, hydroxysteroid (17-beta) dehydrogenase 4. 3-hydroxyacyl-CoA dehydrogenase type-2 (Homo sapiens), Q99714. recombinant HSD17B10, NADH fluorescence kinetic; many of its hits are not listed in these tables. Potency, µM (series often up to 57.1 µM), for the others: top-dose activity change, negative = inhibition, most hits filed as inhibitors. 7.6% of 75,000 active. AID 893, 2007; active = well fitted inhibition curve with a large enough effect; inconclusive = small, poorly fitted or top-dose-only effect; inactive = no such curve, though single readings can be large or run the other way;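 also: the protocol describes HADH2 (HSD17B10) and not the HSD17B4 of the title; nearly all actives have a fitted effect of over 70% in size; most hits overshoot -100% by far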
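His-tagged E. coli-expressed HADH2 at 20 nM in 100 mM Tris-HCl pH 9.0 with 0.01 % Tween-20, preincubated 15 min with compound at room temperature. Reaction with 1 mM NAD+ and 90 uM beta-hydroxybutyryl coenzyme A; NADH fluorescence (360/450 nm) read kinetically over 4 min, last minus first point.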
The depositor's hits bear a star; ? = inconclusive; & = joins results of further samples; [ ] = remark or other dose. % is scaled to controls: 0 for no effect and ±100 for the full control effect; potency is read from the fitted curve at half-maximal effect. These rows are one share of the data. The share of hits here may be higher or lower than overall.

Preview, 2 compounds:
SMILES	HSD17B inh
CC1CCC(C(=O)NC(C(=O)NCCCN2CCOCC2)C(C)C)CC1 (stereo not drawn)	-3%
O=C(NCc1ccccc1)c1c(F)c(F)c(F)c(F)c1F	1%

This part in full, previewed entries included:
SMILES	HSD17B inh
CC1CCC(C(=O)NC(C(=O)NCCCN2CCOCC2)C(C)C)CC1 (stereo not drawn)	-3%
O=C(NCc1ccccc1)c1c(F)c(F)c(F)c(F)c1F	1%
O=C(CSc1ccccc1C(=O)O)Nc1cccc(C(=O)O)c1	-9%
CCOC(=O)c1cc2c(=O)n3cccc(C)c3nc2n(Cc2ccccc2Cl)c1=N	32µM*
O=C(C(c1ccccc1)c1ccccc1)N1CCOCC1	3%
Cn1cccc1Cc1nnc(SCC(=O)NCc2ccco2)n1CCc1ccccc1	-8%
O=C1CC(c2ccco2)CC(O)=C1C=NCC1CCNCC1 (stereo not drawn)	0%
CCOc1ccc(N2C(=O)CC(N3CCC(NC(=O)Nc4ccccc4)CC3)C2=O)cc1 (stereo not drawn)	-3%
CC(Cc1ccccc1)C(=O)NCCc1c[nH]c2ccccc12 (stereo not drawn)	?
CCOc1ccc(N2CC(C(=O)NCc3cccc(C)c3)CC2=O)cc1 (stereo not drawn)	-4%
Cc1ccccc1C1CC(=O)NC2=C1C(=O)CCC2 (stereo not drawn)	32µM*
O=c1c2ccccc2nnn1CSc1nnc(COc2ccc(Cl)cc2)n1Cc1ccco1	0%
COc1cc(N2CCOCC2)ncn1	3%
O=C1C2C3CCCC3=C3CCCC3C2C(=O)N1c1cccc(Cl)c1 (stereo not drawn)	-8%
COC(=O)c1ccc(C(NC(=O)OCc2ccccc2)/C(=C/[C@@H](C)C(=O)NCc2nc3ccccc3n2C)c2cccnc2)cc1 (stereo partly drawn)	-13%
CC(=O)c1ccc(NC2c3ncccc3C(=O)N2Cc2ccc(F)cc2)cc1 (stereo not drawn)	1%
O=C(O)c1cc(-c2ccccn2)n[nH]1	8%
CN(C)CCC(c1ccccc1)c1ccccn1 (stereo not drawn)	9%&-1%
C=CCn1c(N2CCCCCC2)nc2c1c(=O)n(C)c(=O)n2C	5%
CN(C)c1ccc(C2OC(=O)C3(CCCC3)C(=O)C2(C)C)cc1 (stereo not drawn)	7%
NC(=O)[C@@H]1CCCNC1	2%[11.4 µM]
O=C(NCc1cccnc1)C1CCN(S(=O)(=O)c2cccnc2)CC1	-1%
Cc1ccc(C2c3c(oc4cc(C)c(C)cc4c3=O)C(=O)N2CCCN2CCOCC2)cc1 (stereo not drawn)	7%
O=C(CSc1nnc(Cc2ccccc2)o1)N1CCCc2ccccc21	-16%
Cc1ccc(-n2c3c(cc(C(=O)NC4CCSC4=O)c2=O)C(=O)CC(C)(C)C3)cc1 (stereo not drawn)	25µM*
O=C(Nc1cccc(F)c1)N1CC[C@@]2(CCCN(C(=O)c3csnn3)C2)C1	7%
CCOc1ccc(OCC)c(NC(=O)CN2CCC(NC(=O)c3cccc(F)c3)CC2)c1	-11%
CCOC(=O)c1[nH]c2ccc(Br)cc2c1NC(=O)CCN1CCCCC1	-14%
Cc1ccc(S(=O)(=O)n2c3ccccc3c3nnc(C(=O)c4ccccc4)nc32)cc1	-2%[11.4 µM]
CCOc1ccccc1N(C(=O)CNC(=O)c1ccco1)C(C(=O)NC1CCCC1)c1cccnc1 (stereo not drawn)	8%

4 records picked at random from those above:
SMILES	HSD17B inh
O=C(CSc1nnc(Cc2ccccc2)o1)N1CCCc2ccccc21	-16%
Cc1ccc(C2c3c(oc4cc(C)c(C)cc4c3=O)C(=O)N2CCCN2CCOCC2)cc1 (stereo not drawn)	7%
CCOc1ccc(OCC)c(NC(=O)CN2CCC(NC(=O)c3cccc(F)c3)CC2)c1	-11%
CCOC(=O)c1[nH]c2ccc(Br)cc2c1NC(=O)CCN1CCCCC1	-14%

More structures
SMILES	HSD17B inh
CC(=O)N1C2(C=CC1(C)C(=O)NCc1cc(F)cc(C(F)(F)F)c1)CCCCC2 (stereo not drawn)	-6%
COc1ccc(C(C(=O)NC2CCCC2)N2CCc3ccccc32)cc1 (stereo not drawn)	4%
COc1ccccc1Oc1ccc(S(=O)(=O)N2CCCC2)cc1	7%
CS(=O)(=O)N1CCc2cc(C(=O)O)ccc21	12%
O=C(Nc1ccc2c(c1)OCO2)C1CCN(S(=O)(=O)c2cccs2)CC1	-8%
N#CC1=C2SCN(Cc3ccco3)CN2C(=O)CC1c1c(F)cccc1Cl (stereo not drawn)	?
CC(C)(C)NC(=O)C(Cc1ccccc1)NS(=O)(=O)c1ccc2c(c1)CCC(=O)N2 (stereo not drawn)	12%
O=C(Cn1cc(C(=O)COc2ccccc2)c2ccccc21)NCc1ccco1	-7%
CC1=CS/C(=C(/C#N)C(=O)N2CCCCC2)N1c1ccccc1	4%
COc1ccc(/C(O)=C2/C(=O)C(=O)N(CCN(C)C)C2c2ccc(C)cc2)cc1Cl (stereo not drawn)	-4%
CCCCCCN(C(=O)CCCCCN1C(=O)NC(c2ccc(-c3ccccc3)cc2)C(C(=O)OCc2ccccc2)=C1C)C(C)C(=O)NCCCC (stereo not drawn)	1%
COCCn1nnnc1CN1C2CCCC1CC(NC(C)=O)C2 (stereo not drawn)	13%
CN1CCN(C(=O)N2c3ccccc3C=Cc3ccccc32)CC1	9%
COc1ccc(Oc2ncc3ncc(=O)n(CCC#N)c3n2)cc1	3%
O=c1oc2ccccc2n1CSC1=NCCS1	10%
O=C(CSc1nnc(-c2ccccc2)n1Cc1ccco1)Nc1ccc2c(c1)OCCO2	-13%
COC(=O)[C@H]1C[C@@H]1[C@H](NC(=O)c1ccccc1)c1ccccc1	12%
O=C1C(=O)N(CCCn2ccnc2)C(c2cccnc2)/C1=C(/O)c1ccc(Cl)cc1 (stereo not drawn)	-1%
O=C(CCC(=O)c1cccs1)Nc1ccccc1F	-3%
C=CCOc1cccc(C2/C(=C(/O)c3ccc(C)cc3)C(=O)C(=O)N2CCN2CCOCC2)c1 (stereo not drawn)	-4%
CCC(=O)N1CCc2cc(S(=O)(=O)NCCN3CCCCC3CC)ccc21 (stereo not drawn)	6%
COc1ccccc1-c1nccc(N2CCN(C)CC2)n1	-23%
CCOc1ccccc1N1CCN(C(=O)Nc2cccc(Cl)c2)CC1	-4%
Cc1cc(S(=O)(=O)N(Cc2ccc3c(c2)OCO3)CC2CCCO2)ccc1-n1cnnn1 (stereo not drawn)	8%
O=C(c1ccc(F)cc1)c1cc2ccccc2o1	11%
CCc1cc2c(NCC3CCCO3)ncnc2s1 (stereo not drawn)	-14%
COc1ccccc1C1CC(c2ccc(F)cc2)Nc2ncnn21 (stereo not drawn)	-2%
CCN(CC)C(=O)C1CCCN(Cc2ccc(F)c(F)c2)C1 (stereo not drawn)	4%
Cc1cccc(-n2ccnc2SCC(=O)Nc2ccc3c(c2)OCCO3)c1	-3%
C=CCSc1nc2ccccc2c(=O)[nH]1	-4%
CN(C)c1ccc(-c2nc(NC3CCNCC3)c3ccccc3n2)cc1	?
CC(Nc1nc(N2CCN(S(C)(=O)=O)CC2)nc2ccccc12)c1ccccc1 (stereo not drawn)	25µM*
CC(C)(C)OC(=O)N1CC2Cc3[nH]c(=O)ccc3C(C2)C1 (stereo not drawn)	1%
CCOC(=O)Cn1nnnc1C(CC)N(Cc1cc2c(C)cc(C)cc2[nH]c1=O)C1CCCC1 (stereo not drawn)	-4%
COc1cccc(N2C(=O)N(c3ccccc3)C3CS(=O)(=O)CC32)c1 (stereo not drawn)	9%
Fc1ccccc1N1CCN(C(c2cccs2)c2nnnn2CCc2ccccc2)CC1 (stereo not drawn)	-3%
O=C(CSc1nc2ccccc2[nH]1)N1CCN(c2ccc(F)cc2)CC1	-7%
O=C(NCc1ccc2c(c1)OCO2)C1CCCN1C(=O)Nc1cccc(F)c1 (stereo not drawn)	-3%
O=C(NCc1ccco1)c1ccc2c(c1)N(Cc1ccccc1)C(=O)CS2=O (stereo not drawn)	-10%
CC(C)NC(=O)Cn1cc(C#N)c2cc(Br)ccc21	0%
O=C(NC(=O)c1ccccc1)NC1(C(F)(F)F)OCCO1	0%
COCC(=O)N(Cc1ccccc1)c1ccccn1	1%
Cc1cnc(C(=O)OCC(=O)Nc2ccc(Oc3ccccc3)cc2)cn1	7%
CN(C)S(=O)(=O)N1CCN(c2ccc(Cl)cc2)CC1	-3%
CCn1c(COc2ccccc2OC)nnc1SCC#N	-1%
COc1cc(C(=O)OCC(=O)Nc2ccc3c(c2)OC(F)(F)O3)ccc1OCc1c(C)noc1C	-15%
O=[N+]([O-])c1ccc(CS(=O)Cc2ccccc2)cc1 (stereo not drawn)	10%[11.4 µM]
NC(=S)c1ccc(C(N)=S)o1	-14%
COC(=O)c1ccc(S(=O)(=O)c2ccc(C(=O)OC)s2)s1	-3%
CCN(CC)c1ccc(NC(=O)c2cc(OC)cc(OC)c2)c(C)c1	-3%

The results go on.
SMILES	HSD17B inh
Cc1cc(=O)n2nc(N3CCCC3C(=O)NCCCN3CC(C)CC(C)C3)sc2n1 (stereo not drawn)	-2%
Cc1cc(NC(=O)CSc2nc3ccccc3c(=O)n2Cc2ccc(F)cc2)no1	3%
COc1ccc(S(=O)(=O)N2CCN(C(=O)CCC3CCCC3)CC2)cc1	1%
CCOC(=O)C1=C(O)C(Nc2nccs2)(C(F)(F)F)N=C1C (stereo not drawn)	-9%
CC(=O)OCCNc1cc(N2CCN(C)CC2)c2noc3c2c1C(=O)c1ccccc1-3	-7%
COc1ccc(-c2nnc(CSc3nc4ccccc4c(=O)n3C)o2)cc1OC	4%
CCOC(=O)c1[nH]c2c(c1C)C(=O)CC(c1ccc(OC)c(OC)c1)C2 (stereo not drawn)	-2%
CCCCC(CC)CNS(=O)(=O)c1ccc2c(c1)CCN2C(=O)CCC(=O)O (stereo not drawn)	6%
CCCCn1c(=O)c(-c2ccccc2)c(O)c2ccccc21	5%
COC(=O)[C@@]1(Cc2ccc(F)cc2)[C@H]2c3cc(C(=O)N(C)C)n(CCc4ccc(OC)c(Br)c4)c3C[C@H]2CN1C(=O)c1ccccc1	29%

Not a retest: seven of the compounds above.
SMILES	HSD17B inh
Cc1cc(=O)n2nc(N3CCCC3C(=O)NCCCN3CC(C)CC(C)C3)sc2n1 (stereo not drawn)	-2%
Cc1cc(NC(=O)CSc2nc3ccccc3c(=O)n2Cc2ccc(F)cc2)no1	3%
COc1ccc(S(=O)(=O)N2CCN(C(=O)CCC3CCCC3)CC2)cc1	1%
CCOC(=O)C1=C(O)C(Nc2nccs2)(C(F)(F)F)N=C1C (stereo not drawn)	-9%
CC(=O)OCCNc1cc(N2CCN(C)CC2)c2noc3c2c1C(=O)c1ccccc1-3	-7%
COc1ccc(-c2nnc(CSc3nc4ccccc4c(=O)n3C)o2)cc1OC	4%
CCOC(=O)c1[nH]c2c(c1C)C(=O)CC(c1ccc(OC)c(OC)c1)C2 (stereo not drawn)	-2%

Part of the list above in a different format.
> CCOC(=O)c1[nH]c2c(c1C)C(=O)CC(c1ccc(OC)c(OC)c1)C2 (stereo not drawn)
  HSD17B inh: -2%
> CCCCC(CC)CNS(=O)(=O)c1ccc2c(c1)CCN2C(=O)CCC(=O)O (stereo not drawn)
  HSD17B inh: 6%

The list continues.
SMILES	HSD17B inh
O=C(O)CCn1c(C2CCCCC2)nc2ccccc21	1%
O=C(COC(=O)c1ccc(S(=O)(=O)NCc2ccco2)cc1)NCCC1=CCCCC1	-7%
COc1cc(S(=O)(=O)N2CCN3CCCC3C2)ccc1-n1cnnn1 (stereo not drawn)	8%
COc1ccc(CNC(=O)C2CC(=O)N(c3ccc(OCC(=O)N4CCCCC4)cc3)C2)cc1 (stereo not drawn)	7%
CCOC(=O)C(NC(=O)c1cccnc1)(Nc1cccc(C)n1)C(F)(F)F (stereo not drawn)	0%
CCc1ccc(OCCCC(=O)O)c(Br)c1	8%
O=C(Nc1ccccc1C(=O)NCc1ccco1)NC1CCCCC1	-4%
CCSc1nnc(NC(=O)CN(C)S(=O)(=O)c2ccc(F)cc2)s1	-13%
CC(C)(C)C(=O)CC(=O)Nc1ccc(Cl)c(N)c1	-2%
COC(=O)[C@H](Cc1ccccc1)NC(=O)N1CC(C)OC(C)C1 (stereo partly drawn)	5%
Cc1cc2ccccc2c(=O)n1CC(=O)Nc1ccc2c(c1)OCO2	?
c1ccc(-c2nnc(Cn3c4ccccc4c4nc5ccccc5nc43)o2)cc1	7%
CC(=Nc1ccccc1)Nc1ccccc1	2%
O=C(NCCN1C(=O)CSC1=O)c1ccccc1	23%
Cc1cc(NC(=O)CSc2nc3sc4c(c3c(=O)n2C)CCCC4)no1	1%
COc1ccccc1C(=O)N1CCN(c2cccc(C(F)(F)F)c2)CC1	-1%
CCN(CC)C(=O)Oc1ccc2c(=O)c(-c3ccc(OC)cc3)coc2c1	7%
CC(=O)[C@@H](C)CCO[C@@]1(C)OCC[C@@H]1C	3%[11.4 µM]
CCNC(=O)CC1SC(=Nc2ccccc2C)N(C)C1=O (stereo not drawn)	3%
Cc1cc(-c2ccccc2C(=O)NCc2ccccc2)on1	6%
Cc1cccc(-c2noc(CCc3ccccc3)n2)c1	3%
CCN(C(=O)c1coc(=O)c2ccccc12)c1cc(OC)ccc1OC	6%
Cc1n[nH]c(=O)nc1NCc1ccccc1Cl	7%
CCC(=O)NCCc1cc2cc(C)c(C)cc2[nH]c1=O	32µM*
CCCc1cc(-c2[nH]ncc2-c2ccc3c(c2)OCCCO3)c(O)cc1O	?
Cc1nnc(SCCn2c(N3CCC(C)CC3)nc3c2c(=O)n(C)c(=O)n3C)s1	5%
